CSC inhib: blocks cancer stem cells; cancer stem cell-like cells viability, luminescence; 1.1% of 300,000 active; inhibition, % at 7.5 µM;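 active means mean at 75% or more and at least half the replicates too; inconclusive means mean and replicates disagree; tested in HMLE shEcad cells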;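 further: 0% = median of negative and 100% = median of positive control wells; the first replicate is given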
UUG fidelity: modulators of start codon recognition fidelity in yeast. S. cerevisiae UUG-firefly luciferase reporter, luminescence/redox ratio. activity score, % at 18.7 µM. 0.13% of 350,000 active;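 active means replicate mean at a twofold rise or more, about +100% in these data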;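 further: firefly luciferase made from a UUG start codon reports start codon fidelity; reporter light over untreated wells divided by growth signal over untreated wells; some hits fall short of that in this replicate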
eIF4H inh: inhibitors of RNA binding by human eIF4H. inhibition, % at 35 µM. Q15056. 0.94% of 290,000 active. eIF4H fluorescence polarization binding assay;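 active means 50% or more with normal probe brightness, or confirmed in later tests; inconclusive means above 50% with abnormal brightness, or retests that disagree; inactive means below 50% or failed in later tests; about a fifth of its hits are not listed in these tables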;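 further: calls also rest on retests at 20 µM and on dose response follow-up; 0% = protein and probe with vehicle and 100% = probe without protein; strong numbers were not always called active; many hits fall short of the cut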
PABP polyA inh: blocks human PABP binding to poly(A) RNA; P11940; fluorescence polarization; 1% of 290,000 active; AID 2014; inhibition, % at 35 µM;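 active means 50% or more with normal probe brightness, or confirmed in later tests; inconclusive means above 50% with abnormal brightness, or retests that disagree; inactive means below 50% or failed in later tests; about a fifth of its hits are not listed in these tables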;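 further: calls also rest on retests at 20 µM and on dose response follow-up; controls were probe without protein and protein plus probe with vehicle; some compounds called inactive have numbers as strong as hits; many hits fall short of the cut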
Target sequence (P11940 whole entry, looked up): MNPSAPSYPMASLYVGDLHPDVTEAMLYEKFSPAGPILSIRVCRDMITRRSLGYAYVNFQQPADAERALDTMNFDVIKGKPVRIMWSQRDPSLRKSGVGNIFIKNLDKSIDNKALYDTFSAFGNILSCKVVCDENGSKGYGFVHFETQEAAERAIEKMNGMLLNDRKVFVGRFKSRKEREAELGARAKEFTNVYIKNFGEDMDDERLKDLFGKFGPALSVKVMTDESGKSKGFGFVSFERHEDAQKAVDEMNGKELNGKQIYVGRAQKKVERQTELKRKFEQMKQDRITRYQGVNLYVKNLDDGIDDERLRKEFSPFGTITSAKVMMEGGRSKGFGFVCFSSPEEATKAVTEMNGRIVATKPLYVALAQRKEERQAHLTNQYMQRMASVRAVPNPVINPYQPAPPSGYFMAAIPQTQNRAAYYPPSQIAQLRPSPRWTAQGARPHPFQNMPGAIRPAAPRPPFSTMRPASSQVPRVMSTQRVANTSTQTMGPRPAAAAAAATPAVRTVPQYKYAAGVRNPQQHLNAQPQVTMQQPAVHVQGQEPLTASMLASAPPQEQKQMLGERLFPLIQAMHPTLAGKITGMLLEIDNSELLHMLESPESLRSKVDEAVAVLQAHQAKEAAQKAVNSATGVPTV
Rce1 inh: blocks yeast Ras-converting enzyme. 0.27% of 290,000 active. AID 2563. calls only. Q03530. yeast membranes, quenched prenylated peptide cleavage fluorescence;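 active means fall in fluorescence gain of 50% or more versus controls, with final raw signal at or below 3038400; inconclusive means same 50% fall but final raw signal above 3038400; inactive means fall in fluorescence gain under 50%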;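 further: plate controls were neutral control wells for no effect and wells lacking membranes for full effect; tested at 10 µM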
Target sequence (Q03530 whole entry, looked up): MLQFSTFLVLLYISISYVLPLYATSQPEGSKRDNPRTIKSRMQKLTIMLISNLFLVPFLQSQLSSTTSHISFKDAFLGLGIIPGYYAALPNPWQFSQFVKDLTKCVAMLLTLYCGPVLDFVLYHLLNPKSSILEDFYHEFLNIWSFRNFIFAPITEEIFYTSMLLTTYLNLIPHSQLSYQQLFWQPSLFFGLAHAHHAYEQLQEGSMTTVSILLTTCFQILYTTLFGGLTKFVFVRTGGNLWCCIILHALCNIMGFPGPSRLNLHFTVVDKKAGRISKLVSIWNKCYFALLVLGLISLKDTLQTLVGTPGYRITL
Env fusion inh: HIV envelope-mediated fusion inhibition; HeLa-JRFL Env/CEM21 cell fusion, luciferase; 1.1% of 360,000 active; inhibition, % at 12.3 µM;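 active means mean replicate inhibition score of at least 50 and every replicate individually at or above 50; inconclusive means only one of the two criteria met; inactive means mean below 50 and not all replicates reaching 50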;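 further: 0% = plate neutral controls and 100% = maraviroc near 300 nM; one replicate is shown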
MT1-MMP act inh: MT1-MMP (human) activation inhibition. HT1080 RFP-PRO-GFP cells, GFP/RFP ratio fluorescence, overnight; percent of plate control window, DMSO zero. P50281. 0.061% of 360,000 active. GFP/RFP ratio change, % at 20 µM;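 active means GFP/RFP ratio change of at least 30% with cell ATP level not reduced by more than half and red fluorescence within 50% of control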; further: strong numbers were not always called active
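Material – HT1080 RFP-PRO-GFP cells · Control set – DMSO wells and RFP-L50D-GFP cells · Incubation – overnight cell settling, then overnight compound exposure, 37 °C, 5% CO2 · Compound dosing – single-point 20 µM compound, 1% DMSO · Read-out – GFP/RFP fluorescence ratio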
eIF4H inh retest: also measured in eIF4H inh; calls as there; inhibition, %; compound at 20 µM; confirmation average;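 mean of two retest wells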
PABP polyA inh retest: recorded beside PABP polyA inh, whose call it bears; inhibition, %; compound at 20 µM; confirmation repeats;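 mean of two retest wells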
MT1-MMP act inh RFP: recorded beside MT1-MMP act inh, whose call it bears; RFP signal change, %; measured here: RFP expression control read;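 0 = vehicle wells; hits needed this value within 50% of zero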
Active calls of the source: *; i = inactive; ? = inconclusive; · = no result given; & = joins results of further samples. These rows are one share of the data, so the mix of outcomes need not match the whole.

SMILES | CSC inhib | UUG fidelity | eIF4H inh | PABP polyA inh | Rce1 inh | Env fusion inh | MT1-MMP act inh | MT1-MMP act inh RFP | others
CC(=O)c1ccccc1NC(=O)COC(=O)c1ccccc1NC(=O)c1ccccc1 | 6 | · | -6 | -5 | · | 9 | 0 | 3
COc1ccc(CCNC(=O)C(=O)NCC2OCCN2S(=O)(=O)c2ccc(OC)cc2)cc1 (stereo not given) | -7 | -3 | 22 | -6 | i | · | -5 | -11
C[C@@H]1CN([C@@H](C)CO)C(=O)CCCn2nncc2CO[C@@H]1CN(C)C(=O)Nc1ccc(-c2cccs2)cc1 | · | -2&4 | · | · | · | 27 | 1 | -3
Cc1cccc2[nH]c(SCC(=O)N3CCOCC3)nc12 | -4 | -18 | 8 | -1 | i | -6 | -1 | 1
Cc1cccc(C)c1Cn1c(C)c(C(=O)NCCC#N)sc1=O | · | -17 | · | · | · | 1 | 7 | 0
CCn1nnnc1NCc1cccn1C | 1 | -21 | 5 | -2 | · | -19 | 12 | 2
CC(NC(=O)COc1cccnc1[N+](=O)[O-])c1ccc(F)cc1 (stereo not given) | · | -1 | -14 | -2 | i | 4 | 5 | 3
CS(=O)(=O)Nc1ccc(-c2cc(/C=C3\SC(N)=NC3=O)c[nH]c2=O)cc1 | 8 | -2 | 0 | 0 | i | -10 | 0 | 6
COC(=O)c1cccc(NC(=O)CCNC(=O)c2ccco2)c1 | · | -4 | -3 | 7 | i | -6 | · | ·
Cc1ccc(SCc2nnc(N)s2)cc1 | -1 | -5 | 3 | 8 | i | · | -4 | 0
CNS(=O)(=O)c1ccc2c(c1)NC(=O)C1CCCN21 (stereo not given) | -8 | 1 | -8 | 1 | i | -30 | 2 | 0
C/C(=N\NC(=O)C1(C)CC1(Br)Br)c1cccc(NC(=O)c2ccc(C)o2)c1 (stereo not given) | 15 | -11 | -2 | 3 | · | 36 | 1 | -15
CC(C)(C)c1nnc(N/N=C/c2ccccc2)n(N)c1=O | -6 | -21 | 1 | -3 | i | 7 | -26 | -21
O=C(c1cc(-c2ccc(Br)cc2)on1)N1CCCC1 | -8 | -15 | 1 | -4 | · | -73 | -1 | -1
COc1ccc(C2C(CC(=O)O)=C(Nc3ccccc3)C(=O)N2c2ccccc2)cc1 (stereo not given) | -5 | -35 | -13 | 0 | i | -15 | 1 | 6
CC(=O)Nc1ccc(NC(=O)COc2cc(C)cc3oc(=O)cc(C)c23)cc1 | -13 | -14 | -10 | 3 | i | -2 | 1 | 0
CCOc1ccc(CCNC(=O)C2CC(=O)N(Cc3ccc(C)cc3)C2)cc1OCC (stereo not given) | -10 | · | · | · | i | 0 | -2 | 1
Cc1ccc(NC(=O)CSc2nnc(CCC(=O)O)c(=O)[nH]2)cc1 | -12 | -12 | -4 | 3 | i | -14 | 0 | 8
CC1CCCCC1NC(=O)Cn1c(CN2CCCCC2)nc2ccccc2c1=O (stereo not given) | 13 | -11 | 5 | 16 | i | -192 | -7 | 0
CCc1c(C)sc(NC(=O)c2ccco2)c1C(=O)N1CCOCC1 | -15 | -10 | 14 | -2 | i | -30 | 1 | 0
COC(C(=O)N/N=C(\C)CC(=O)Nc1ccc(Cl)cc1C)c1ccccc1 (stereo not given) | -9 | · | -5 | 1 | i | -7 | 2 | 6
OCCN1CCN(CC/C=C2/c3ccccc3Sc3ccc(Cl)cc32)CC1 | 14 | -10 | · | · | · | 23 | -1 | -3
Cc1c(NC(=O)c2cccc(NC(=O)COc3cccc(Br)c3)c2)c(=O)n(-c2ccccc2)n1C | 16 | -6 | · | · | · | 13 | 5 | -5
COc1ccc(NC(=O)COC(=O)CCCN2C(=O)c3ccccc3C2=O)cc1Cl | · | 9 | 4 | -14 | i | -12 | 4 | 6
O=C(CCn1c(=O)c2ccccc2n(Cc2cccnc2)c1=O)NCc1ccc2c(c1)OCO2 | · | -15 | 6 | -3 | i | · | -1 | 0
CCN(CC)c1nc2ccccc2[nH]c1=O | -9 | -12 | 10 | 12 | i | -6 | -15 | 2
CCCN(CCC)C(=O)c1cc(S(=O)(=O)N2CCCCC2)c[nH]1 | -10 | -17 | -7 | 4 | i | 7 | -2 | -2
CCCc1nn(C)c(C(=O)Nc2ccccc2)c1Cl | -7 | · | 2 | 7 | i | · | -3 | -5
CCOc1ccccc1NC(=O)CSc1ccc([N+](=O)[O-])cc1 | -4 | -3 | -4 | ? | i | 12 | -2 | -2
CC(=O)N1CCc2c(sc(NC(=O)c3ccc([N+](=O)[O-])o3)c2C(N)=O)C1 | · | 5 | · | · | · | i | 1 | -14
CNC(=S)N1CCN(c2ccc(OC)cc2)CC1 | -18 | -11 | -2 | -10 | i | · | 4 | 4
O=C1C(Cl)=C(N2CCCCC2)C(=O)N1Cc1ccccc1 | 12 | 6 | -14 | -8 | i | 14 | -1 | 0
O=[N+]([O-])c1ccccc1NS(=O)(=O)c1ccccc1 | · | -22 | · | · | · | 14 | 2 | -1
Cc1noc(C)c1COC(=O)C1(c2cccc(F)c2)CCCC1 | -3 | -29 | 1 | 3 | i | · | -5 | -10
CCOC(=O)/C(C#N)=C\c1ccc(O)c(OC)c1 | -7 | · | -3 | 13 | i | -22 | 1 | 4
Cc1cc(N2CCOCC2)c2c(N)cc(C)c(C)c2n1 | · | -8 | -4 | 2 | i | · | 4 | 2
CCOC(=O)c1sc2nc(C)n(CC(=O)NCC3CCCO3)c(=O)c2c1C (stereo not given) | -4 | -16 | -6 | -4 | i | -10 | 8 | 2
O=c1cc(C(O)C[N+](=O)[O-])occ1OCc1ccccc1 (stereo not given) | -18 | -11 | · | · | i | -7 | -7 | 3
O=C1CCCC2=C1C(c1ccncc1)c1c(nc(SCc3ccccc3Cl)[nH]c1=O)N2 (stereo not given) | · | -14 | 7 | 14 | · | · | 0 | -3
CC(C(=O)Nc1ccc(O)cc1)c1cccc(C(=O)c2ccccc2)c1 (stereo not given) | -3 | · | 7 | -10 | i | 36 | 3 | -15
CCCC(=O)Oc1ccccc1C1SCc2cc(C)c(C)cc2CS1 | 1 | -24 | -9 | 0 | i | · | -2 | -1
Cc1ccccc1OCC(=O)Nc1cccc(S(=O)(=O)NC2=NCCCCC2)c1 | 2 | 5 | · | · | i | -3 | -1 | 3
O=C1CCC(C(=O)N2CCCCO2)CN1Cc1ccc(Cl)cc1 (stereo not given) | 4 | -12 | 5 | -10 | i | · | -1 | 1
CC(O)CN(Cc1cccc(Cl)c1)CC(C)O (stereo not given) | · | -11 | -1 | 10 | i | · | 1 | -1
CC(=O)N1CCc2c(sc3c2c(=O)n(-c2ccccc2)c(=O)n3CC(=O)NCC2CCCO2)C1 (stereo not given) | 4 | 14 | 4 | -2 | i | -17 | 1 | 2
CCCCN(C(=O)c1cc2c(s1)CCCC2)c1c(N)n(CCC)c(=O)[nH]c1=O | · | 3 | · | · | · | 8 | -2 | -1
COc1ccc(C2C(C(=O)N3CCCC3)c3cc(OC)c(OC)cc3C(=O)N2C)cc1OC (stereo not given) | -7 | -4 | -5 | 0 | i | -20 | 1 | 1
S=C(Nc1ccc(Br)cc1)NC1CCCC1 | -1 | · | 0 | 0 | i | -7 | 6 | 4
COC(=O)c1ccccc1NC(=O)CN(c1ccccc1)S(=O)(=O)N(C)C | -37 | -5 | · | · | i | · | -1 | 0
CC(C)CC(NS(=O)(=O)c1ccccc1S(=O)(=O)NC(CC(C)C)C(=O)O)C(=O)O (stereo not given) | 7 | -24 | -13 | 13 | i | -37 | 0 | 3
CC1=C2C3OC(=O)C(C)C3CCC2(C)C=CC1=NO (stereo not given) | · | -6 | · | · | · | -37 | 0 | 2
COC(=O)COc1ccc2c(=O)c(Oc3ccccc3Br)coc2c1 | -13 | -7 | 6 | 0 | i | 7 | · | ·
N#CC1=C(N)Oc2ccccc2C12C(=O)Nc1n[nH]c(-c3ccccc3)c12 (stereo not given) | -7 | 9 | -1 | -6 | i | · | 0 | 4
COc1ccccc1NC(=O)c1nn(-c2cccc(C(F)(F)F)c2)ccc1=O | · | -19 | -4 | -2 | i | · | 3 | -1
COc1ccc(C2NC(=O)c3ccccc3N2)cc1 (stereo not given) | 3 | -19 | 7 | 16 | i | · | 0 | 4
O=c1[nH]n(-c2cccc(Cl)c2)c2ncccc12 | 5 | -22 | -2 | 7 | i | -11 | 1 | 3
COc1ccc(/C=N/NC(=O)c2cc(C34CC5CC(CC(C5)C3)C4)[nH]n2)cc1OC | 53 | · | 1 | 5 | i | 4 | -5 | 0
CCn1c(=O)[nH]c2cc(C(=O)N3CCN(c4ccccc4)CC3)ccc2c1=O | · | · | -6 | -5 | i | · | -1 | -2
O=C(CNC(=O)C1COc2ccccc2O1)Nc1ccc(F)c(F)c1 (stereo not given) | -1 | · | · | · | · | -9 | 6 | -3
O=C(NC1CCCCC1)c1c2c(nc3ccccc13)CCC2 | -3 | · | 87 | -12 | i | 0 | 0 | 4 | eIF4H inh retest=-15;PABP polyA inh retest=-8

The results go on.
SMILES | CSC inhib | UUG fidelity | eIF4H inh | PABP polyA inh | Rce1 inh | Env fusion inh | MT1-MMP act inh | MT1-MMP act inh RFP | others
COc1ccc(OC)c(S(=O)(=O)N2CCN3CCCC3C2)c1 (stereo not given) | -11 | -12 | 17 | 8 | i | -111 | -2 | 2
Cc1ccc(C2(O)CN(c3ccccc3)C3=[N+]2CCS3)cc1 (stereo not given) | 2 | 4 | -14 | -12 | i | 12 | -4 | -7
Cc1cc(-c2ccc(S(=O)(=O)Nc3ccc(C#N)cc3)s2)on1 | -6 | -16 | 11 | 5 | i | 5 | -1 | 3
COc1cc(SSc2cc(OC)cc([N+](=O)[O-])c2N)c(N)c([N+](=O)[O-])c1 | 19 | -23 | 12 | 14 | i | 10 | 18 | -3
Cc1c(CNC(=O)c2cnn3c2NC(c2ccc(Br)cc2)CC3C(F)(F)F)cnn1C (stereo not given) | -12 | -14 | -2 | -7 | i | · | -1 | -4
COc1ccc(-c2nnc(NC(=O)c3ccc(F)cc3)o2)cc1 | 27 | -23 | 20 | -15 | i | 15 | 5 | -3
COc1ccccc1NC(=S)N1CCN(Cc2ccc3c(c2)OCO3)CC1 | -5 | -19 | -11 | 46 | i | 2 | -10 | -4
CCOc1ccc(N2C(=O)CC(NC3CCN(C(=O)c4ccc(F)cc4)CC3)C2=O)cc1 (stereo not given) | -2 | -6 | -16 | -4 | i | -1 | 1 | 3
Cc1ccc(C(=O)Cc2nc3ccccc3[nH]2)cc1 | 15 | -17 | -4 | -19 | i | -17 | -1 | 6
Cc1cc2c(NC(=O)Nc3ccc(C(C)(C)C)cc3)cccc2nn1 | -15 | · | 7 | 0 | i | -12 | 5 | -15
COc1ccc(N2C(=S)NC(C)(C)CC2(C)c2ccc(OC(C)=O)cc2OC(C)=O)cc1 (stereo not given) | · | · | 4 | 0 | i | 11 | -5 | 0
COc1ccc(S(=O)(=O)N2CCCCC2)cc1NC(=O)CCNC(=O)c1ccc(Cl)cc1 | -8 | -6 | · | · | · | 13 | 1 | 1

Grouped by structure: the entries above containing a CF3 group
SMILES | CSC inhib | UUG fidelity | eIF4H inh | PABP polyA inh | Rce1 inh | Env fusion inh | MT1-MMP act inh | MT1-MMP act inh RFP | others
COc1ccccc1NC(=O)c1nn(-c2cccc(C(F)(F)F)c2)ccc1=O | · | -19 | -4 | -2 | i | · | 3 | -1
Cc1c(CNC(=O)c2cnn3c2NC(c2ccc(Br)cc2)CC3C(F)(F)F)cnn1C (stereo not given) | -12 | -14 | -2 | -7 | i | · | -1 | -4

Screening data from PubChem.
